Marburg entry inh = qHTS for inhibitors of binding or entry into cells for Marburg Virus; AID 540276, 2011; Potency, µM (top dose mostly 37.8 µM), for inactives: at the top dose activity change, negative = inhibition, usual class: inhibitors; Marburg virus pseudotyped entry inhibition, cell reporter; control for the full effect not named in the record; about a third of the inactives were read at about 46 µM; actives 1.8% (n = 300,000); active = well fitted inhibition curve with a large enough effect; inconclusive = small, poorly fitted or top-dose-only effect, or effect the other way; inactive = flat fitted curve, though single readings scatter; tested in HEK293 cells; about a fifth of its hits are not listed in these tables; further: on the % scale 0 is the no-effect control and ±100 the full control effect; luciferase read-out
StopGo reporter = High Throughput Screening for Foot and Mouth Disease Virus Antivirals; human cells with a luciferase reporter of 2A StopGo recoding; control for the full effect not named in the record; Potency, µM (titrated, usually from 57.9 µM), for the others: top-dose signal change, negative = less light; actives 1.2% (n = 410,000); AID 1159524, 2015; active = well fitted falling curve with a large enough effect; inconclusive = small, poorly fitted or top-dose-only effect; inactive = no such curve, though single readings can be large or run the other way; tested in HEK293T cells; further: on the % scale 0 is the no-effect control and ±100 the full control effect; nearly all actives have a fitted effect of over 45% in size; luciferase light after 4 h
LASV entry inh = qHTS for Inhibitors of binding or entry into cells for Lassa Virus | Lassa virus pseudotype entry inhibition, cell reporter; control for the full effect not named in the record | Potency, µM (series often up to 37.9 µM), for inactives: at the top dose activity change, negative = inhibition, actives largely listed as inhibitors | actives 1.2% (n = 300,000); active means well fitted inhibition curve with a large enough effect; inconclusive means small, poorly fitted or top-dose-only effect, or effect the other way; inactive means flat fitted curve, though single readings scatter; tested in HEK293 cells; further: on the % scale 0 is the no-effect control and ±100 the full control effect; nearly all actives have a fitted effect of over 50% in size; luciferase read-out
RE007 growth inh = qHTS Assay for Inhibitors of the HIV-1 protein Vpr. S. pombe RE007 Vpr strain, BacTiter-Glo ATP luminescence, 24 h; control for the full effect not named in the record. Potency, µM (titrated, usually from 92.2 µM), without a hit: top-dose activity change, negative = less growth. actives 0.21% (n = 360,000). AID 651644, 2012; active = well fitted falling curve with a large enough effect; inconclusive = small, poorly fitted or top-dose-only effect; inactive = no such curve, though single readings can be large or run the other way;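 further: on the % scale 0 is the no-effect control and ±100 the full control effect; nearly all actives have a fitted effect of over 50% in size; the assay follows cell death caused by Vpr and the record does not say whether a fall means rescue or toxicity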
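Fission yeast strain RE007, carrying one chromosomally integrated HIV-1 vpr copy, was seeded at OD 0.01 in PMG+AL medium with 23 nL pinned compound. After 24 h at 30 °C and 99% humidity, viability was read by BacTiter-Glo luminescence.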
NS1 function inh = qHTS Assay for Inhibitors of Influenza NS1 Protein Function | AID 2326, 2010 | actives 0.4% (n = 270,000) | S. cerevisiae slowed by influenza A NS1, growth recovery by OD600 | Potency, µM (series often up to 46.1 µM), for the others: at the top dose activity, positive = more growth; active means well fitted rising curve with a large enough effect; inconclusive means small, poorly fitted or top-dose-only effect; inactive means no such curve, though single readings can be large or run the other way; further: nearly all actives have a fitted effect of over 50% in size
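S. cerevisiae expressing influenza A NS1, grown in glucose, washed, then diluted 1:100 into pH 6.0 -URA galactose medium with 23 nl compound. Growth recovery read as OD600; NS1-free strain serves as control.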
Cruzain noTriton = qHTS Assay for Promiscuous and Specific Inhibitors of Cruzain (without detergent). Cruzipain (Trypanosoma cruzi), P25779. purified cruzain, Z-FR-AMC fluorescence, no detergent. Potency, µM, for inactives: max response, negative = inhibition, usual class: inhibitors. actives 2.3% (n = 200,000);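 further: plate controls were enzyme without inhibitor for no effect and buffer without enzyme for full effect; nearly all actives have a fitted effect of over 40% in size; top concentration of the series not given in the record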
Target sequence (P25779 123-467 limits assumed): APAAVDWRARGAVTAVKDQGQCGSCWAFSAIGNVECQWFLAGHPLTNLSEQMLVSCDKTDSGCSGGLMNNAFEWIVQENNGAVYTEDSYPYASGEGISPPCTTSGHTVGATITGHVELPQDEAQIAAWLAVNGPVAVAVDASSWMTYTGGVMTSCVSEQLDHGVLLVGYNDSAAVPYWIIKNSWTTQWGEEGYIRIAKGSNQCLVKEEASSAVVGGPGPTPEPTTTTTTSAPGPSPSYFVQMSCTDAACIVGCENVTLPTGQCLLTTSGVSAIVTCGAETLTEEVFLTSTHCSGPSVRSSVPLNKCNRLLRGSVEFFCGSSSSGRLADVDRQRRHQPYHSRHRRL
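Detergent-free condition (0.00005% Triton X-100) in acetate buffer pH 5.5 with DTT. 1.5 nM enzyme and compound were pre-mixed 15 min, then 2 uM Z-FR-AMC substrate added; reaction progress from fluorescence change between first and third reads (60 s).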
Cruzain Triton = qHTS Assay for Promiscuous and Specific Inhibitors of Cruzain (with detergent); purified cruzain, Z-FR-AMC fluorescence, 0.01% Triton; Potency, µM, for the others: max response, negative = inhibition, hits mostly inhibitors; actives 0.43% (n = 200,000); AID 1478, 2009;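 further: plate controls were neutral wells for no effect and buffer without enzyme for full effect; nearly all actives have a fitted effect of over 40% in size; top concentration of the series not given in the record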
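15 min RT preincubation of 1.5 nM cruzain with compound, then 2 uM Z-FR-AMC added; kinetic AMC fluorescence, 60 s delta. Triton X-100 0.01%, pH 5.5.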
SARS PLP yeast = qHTS of Yeast-based Assay for SARS-CoV PLP | S. cerevisiae expressing SARS-CoV PLpro, growth rescue; control for the full effect not named in the record | Potency, µM (doses to about 32.9 µM), inactives show at the top dose activity, positive = growth rescue | actives 0.19% (n = 330,000) | AID 485353, 2010; active means well fitted rising curve with a large enough effect; inconclusive means small, poorly fitted or top-dose-only effect; inactive means no such curve, though single readings can be large or run the other way; further: 0% is about no effect; nearly all actives have a fitted effect of over 55% in size; growth read by luminescence after 48 h
The depositor's hits bear a star; u = inconclusive; x = no result given; & = joins results of further samples; [ ] = another dose, or the depositor's remark. Unless noted, the call rests on the fitted dose curve; in most records, active means well fitted curve in the direction sought with a large enough effect; inconclusive means small, poorly fitted or top-dose-only effect, or another doubt; inactive means no such curve, though single readings can be large; an effect the other way counts as inactive or inconclusive. Potency means the concentration at half of the fitted maximal effect. Rows were taken by chance, and some 4.6% of all compounds hit somewhere here.

SMILES | Marburg entry inh | StopGo reporter | LASV entry inh | RE007 growth inh | NS1 function inh | Cruzain noTriton | Cruzain Triton | SARS PLP yeast
COC(=O)c1cc(CSc2nc3ccccc3[nH]2)oc1C | u | -23% | u | 7% | -14% | 0% | -3.5% | 6%
CC(=O)Nc1ccc(NC(=S)Nc2ccc(F)cc2)cc1 | 25%[46.1 µM] | 0% | 12% | 2% | x | x | x | -2%
CC(SCc1ccccc1)C(=O)N/N=C/c1cccs1 (stereo not drawn) | u | -15% | -29% | 35% | -9% | -1% | -5.4% | 22%
COc1cc(/C=C2\SC(=O)NC2=O)ccc1OCc1ccc(Cl)nc1 | u | 4% | u | 18% | -2% | x | x | 0%
COc1ccc(C2CC2/C(C)=N/OC(=O)c2cccs2)cc1 (stereo not drawn) | u | u | 0% | -12% | -227% | 1% | -8.5% | -33%
CCn1c(SCC(=O)N=Nc2c(O)[nH]c3ccccc23)nc2ccccc21 | -11% | -18% | -18% | 4% | 0% | -1% | -4.5% | 10%
CN1CCN(c2ncccc2S(=O)(=O)N2CCCCC2)CC1 | u | -2% | 13% | 1% | -6% | 11% | -1.0% | -2%
O=C(NCCCN1CCN(c2cccc(Cl)c2)CC1)c1nnc(Cc2ccc(F)cc2Cl)o1 | -28%[46.1 µM] | -29% | -28%[46.1 µM] | x | x | 1% | -5.0% | x
CCOc1ccc(N(C(=O)CC(C)C)S(=O)(=O)c2ccc3c(c2)oc(=O)n3C)cc1 | u | -15% | u | x | x | u | -7.0% | x
Cc1cccc(C(=O)NCC(=O)N2CCN(S(=O)(=O)c3ccccc3)CC2)c1 | 0%[46.1 µM] | 4% | 16% | 10% | x | x | x | 1%
CCCCS(=O)CC(O)CSc1nc(-c2ccc(OC)cc2)cc(-c2ccccc2)c1C#N (stereo not drawn) | x | u | -30%[46.1 µM] | x | x | u | -4.9% | x
Cc1cc(NC(=O)C2COc3ccccc3O2)no1 (stereo not drawn) | 11% | 41%[activator] | 6% | 4% | 10% | 0% | 1.5% | -9%
COc1ccc(C2=Cc3ccc(OC(C)=O)cc3OC2)cc1 | -26% | 32%[activator] | u | -6% | x | x | x | x
CCOc1ccccc1CN1CCN(Cc2ccc3cccc(OC)c3n2)CC1CCO (stereo not drawn) | x | -18% | x | -1% | 22% | x | x | 2%
Cc1ccccc1Nc1nc(N)nc(COc2ccc(C#N)cc2)n1 | 3%[46.1 µM] | 4% | -3%[46.1 µM] | -10% | x | x | x | 1%
Cc1ccc(CN(c2ccc(C(=O)NCc3ccc4c(c3)OCO4)cc2)S(C)(=O)=O)cc1 | 8% | u | -7% | 6% | 4% | 2% | -3.6% | -2%
CC1CN=C(Nc2ccc(N(C)C)cc2)S1 (stereo not drawn) | 8% | x | 3% | 4% | 3% | -4% | 6.1% | 2%
COc1ccc(NC(=O)c2cc([N+](=O)[O-])ccc2N2CCN(C)CC2)cc1 | -3%[46.1 µM] | 16% | -10% | -24% | 7% | x | x | 0%
CC1=C(C(=O)Nc2ccccc2F)C(c2cccs2)NC(=S)N1 (stereo not drawn) | 11%[46.1 µM] | -14% | 3%[46.1 µM] | -29% | 4% | x | x | -1%
Cc1ccc2nc(NC3=NCN(Cc4cccnc4)CN3)nc(C)c2c1 | -7%&-7% | 1% | -2% | -13% | 0% | -2% | -6.2% | -4%
CCCc1cc(=O)oc2cc(OC(C)C(=O)NCc3ccccn3)c(Cl)cc12 (stereo not drawn) | x | u | x | -8% | -10% | x | x | -3%
CCc1ccccc1NC(=O)C(=O)NCCCN1CCOCC1 | 0%[46.1 µM] | 12% | 11%[46.1 µM] | x | x | -4% | -2.4% | x
CN1C(c2ccccc2)CCOS1(=O)=O (stereo not drawn) | x | 90%[activator] | x | 1% | 12% | x | x | 5%
COc1ccccc1CN1CC(=O)N2CSC[C@H]2C1=O | x | -2% | x | 5% | 6% | x | x | 6%
CCCOc1ccc(NC(=O)C2CC(=O)N/C(=N/N=C(\C)CCc3ccc4c(c3)OCO4)S2)cc1 (stereo not drawn) | -3% | -3% | -7% | 60% | 18% | 16% | -8.8% | -6%
COc1ccc(OC)c(NC(=O)c2cnn(-c3ccccc3Cl)c2NC(=O)c2ccco2)c1 | 20% | 31%[activator] | 6% | 7% | 4% | 4% | -1.6% | 5%
Cc1cc(-c2ccccc2)nc2[nH]n(-c3ccccc3)c(=O)c12 | -8% | -10% | 12% | -1%[3.69 µM] | 21% | 5% | -3.4% | 4%
O=S(=O)(c1ccc(F)cc1)N(CCO)CC(O)Cn1c2ccccc2c2ccccc21 (stereo not drawn) | -27% | -23% | -26%[14.3 µM] | 0% | -35% | u | -2.5% | -5%
CCN(C(=O)Cn1c(SCC(=O)Nc2ccc(OC)cc2)nc2ccccc21)c1cccc(C)c1 | x | -18% | u | x | x | u | -5.0% | x
O=c1[nH]cc(S(=O)(=O)N2CCN(c3cccc(C(F)(F)F)c3)CC2)c(=O)[nH]1 | -5%[46.1 µM] | -8% | 4% | -12% | x | x | x | 0%

Next part, overlapping the part above by 3 compounds.
SMILES | Marburg entry inh | StopGo reporter | LASV entry inh | RE007 growth inh | NS1 function inh | Cruzain noTriton | Cruzain Triton | SARS PLP yeast
O=S(=O)(c1ccc(F)cc1)N(CCO)CC(O)Cn1c2ccccc2c2ccccc21 (stereo not drawn) | -27% | -23% | -26%[14.3 µM] | 0% | -35% | u | -2.5% | -5%
CCN(C(=O)Cn1c(SCC(=O)Nc2ccc(OC)cc2)nc2ccccc21)c1cccc(C)c1 | x | -18% | u | x | x | u | -5.0% | x
O=c1[nH]cc(S(=O)(=O)N2CCN(c3cccc(C(F)(F)F)c3)CC2)c(=O)[nH]1 | -5%[46.1 µM] | -8% | 4% | -12% | x | x | x | 0%
CC(=O)NC1CCN(C(=O)N2CCCC2)CC1 | -17% | 9% | 14% | 29% | 2% | -3% | 6.9% | 4%
COc1ccc(CN2CCCC(C(=O)N3CCCC3)C2)cc1 (stereo not drawn) | 15% | -5% | 3% | 9%[3.69 µM] | -16% | -4% | 2.0% | 3%
O=C(Nc1cc2c(cc1Cl)OCCO2)c1ccco1 | u | 86%[activator] | -1% | -10% | -6% | -11% | -2.8% | 0%
O=C(NC(Cc1ccccc1)C(=O)O)/C(=C\c1ccccc1)NC(=O)c1ccc(Br)o1 (stereo not drawn) | x | -19% | x | 12% | 26% | x | x | 1%
CC(CC1CC(C)(C)OC1=O)C(=O)Nc1ccc([N+](=O)[O-])cc1 (stereo not drawn) | -28% | -28% | -4% | 2% | -2% | -8% | -2.6% | 0%
CCOc1ccc(NC(=O)COC(=O)CN2CCCCCC2=O)cc1 | u | 5% | x | -8% | x | x | x | 2%
O=C(COC(=O)c1ccncc1)NCCCc1ccccc1 | x | 2% | x | 16% | 16% | x | x | -1%
Cc1ccc(-c2nnc3n2N=C(c2ccc(Br)cc2)CS3)cc1 | x | -10% | x | -9% | -33% | -17% | -3.6% | 1%
Cc1ccc(C)c(NC(=O)CCCCCN2C(=O)[C@@H]3Cc4ccccc4CN3C2=O)c1 | -2%[46.1 µM] | u | -22%[46.1 µM] | 6% | -1% | x | x | 7%
COc1cccc(OCc2nnc(SCC(=O)NCc3ccco3)n2C)c1 | 4% | 2% | 7% | 24% | 7% | 1% | 2.6% | -3%
O=C(NCCSCc1ccco1)c1ccc(=O)[nH]c1 | 0%[46.1 µM] | 11% | 15%[46.1 µM] | 9% | 6% | x | x | 1%
COc1ccc(N2C(=O)CC(N3CC=C(c4ccccc4)CC3)C2=O)cc1 (stereo not drawn) | x | -3% | x | u | -29% | -7% | -6.6% | -29%
O=C(NCN1CCc2ccccc2C1)c1ccccc1 | 1% | 14% | 13% | 6% | 5% | -1% | 3.3% | -5%
CCOC(=O)c1cccc(NC(=O)CSc2nnc(COc3ccc(Cl)cc3)o2)c1 | -3%&-3%[46.1 µM] | 19% | 0% | 33% | 2% | u | 1.7% | 3%
O=C(CCCN1C(=O)c2ccccc2C1=O)Oc1ccc(F)cc1 | 15% | 18% | 43%[14.3 µM] | -9% | -2% | -20% | -10% | 3%
N/C(=N\OC(=O)c1ccoc1)c1ccc(Br)cc1 | x | 56%[activator] | x | u | -176% | x | x | -19%
Cc1[nH]c2ccccc2c1C(=O)COC(=O)c1ccccc1O | 3% | 5% | -9% | 2% | x | x | x | -8%
Cc1ccc(N/C=C2\CCCCC2=O)c(C)c1 | -5% | 5% | 5%[46.1 µM] | -5% | 9% | -2% | -9.5% | 14%
Cc1cc(C(F)(F)F)n2ncc(-c3ccccc3)c2n1 | 7%[46.1 µM] | 17% | 3% | -7% | -4% | -1% | 1.2% | -3%
Cc1sc2ncn(CC(=O)Nc3ccc(C(F)(F)F)cc3)c(=O)c2c1S(=O)(=O)N1CCN(C)CC1 | u | -10% | 3%[46.1 µM] | x | x | 3% | -2.5% | x
Cc1cc(=O)oc2cc(OC(C)C(=O)Nc3ccc(N4CCOCC4)cc3)ccc12 (stereo not drawn) | 7% | 2% | 3% | -2% | -2% | -4% | -1.3% | 1%
CCOC(=O)N1CCN(S(=O)(=O)N2CCCC(C(=O)NCCc3ccccc3)C2)CC1 (stereo not drawn) | x | -10% | x | 6% | 1% | x | x | 9%
O=C(Nc1ncccn1)C1CCCCC1 | x | -1% | x | 6% | 4% | x | x | 0%
COc1ccc(OC)c(C2C(C(=O)Nc3ccccc3OC)=C(C)Nc3c(C(=O)Nc4ccc(F)cc4)cnn32)c1 (stereo not drawn) | x | -6% | -9%[46.1 µM] | x | x | -14% | -7.5% | x
CCNC(=S)NNC(=O)c1cccnc1 | 7% | x | 14% | 3% | 0% | u | -1.3% | -11%
COCCn1c(Cc2ccccc2)nnc1SCC(=O)N1CCCCC1C (stereo not drawn) | -4% | 1% | 3% | 0% | 5% | -7% | -0.7% | 5%

Bioassay records as filed in PubChem.
